# 2A StopGo: lowers the luciferase signal of an FMDV 2A StopGo reporter; Potency, µM (top dose mostly 57.9 µM), inactives show at the top dose signal change, negative = less light; 1.2% of 410,000 active; human cells with a luciferase reporter of 2A StopGo recoding; control for the full effect not named in the record; active = well fitted falling curve with a large enough effect; inconclusive = small, poorly fitted or top-dose-only effect; inactive = no such curve, though single readings can be large or run the other way; tested in HEK293T cells; also: % is scaled to controls: 0 for no effect and ±100 for the full control effect; nearly all actives have a fitted effect of over 45% in size; luciferase light after 4 h
# RE007 growth inh: less growth of the S. pombe RE007 Vpr strain | S. pombe RE007 Vpr strain, BacTiter-Glo ATP luminescence, 24 h; control for the full effect not named in the record | Potency, µM (series often up to 92.2 µM), without a hit: at the highest dose activity change, negative = less growth | 0.21% of 360,000 active; active = well fitted falling curve with a large enough effect; inconclusive = small, poorly fitted or top-dose-only effect; inactive = no such curve, though single readings can be large or run the other way;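 also: % is scaled to controls: 0 for no effect and ±100 for the full control effect; nearly all actives have a fitted effect of over 50% in size; the assay follows cell death caused by Vpr and the record does not say whether a fall means rescue or toxicity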
#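 Fission yeast strain RE007, carrying one chromosomally integrated HIV-1 vpr copy, was seeded at OD 0.01 in PMG+AL medium with 23 nL pinned compound. After 24 h at 30 °C and 99% humidity, viability was read by BacTiter-Glo luminescence.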
# Cruzain noTriton: blocks cruzain activity in detergent-free assay; P25779; purified cruzain, Z-FR-AMC fluorescence, no detergent; Potency, µM, for inactives: max response, negative = inhibition, usual class: inhibitors; 2.3% of 200,000 active;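 also: plate controls were enzyme without inhibitor for no effect and buffer without enzyme for full effect; nearly all actives have a fitted effect of over 40% in size; top concentration of the series not given in the record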
# Target sequence (P25779 123-467 limits assumed): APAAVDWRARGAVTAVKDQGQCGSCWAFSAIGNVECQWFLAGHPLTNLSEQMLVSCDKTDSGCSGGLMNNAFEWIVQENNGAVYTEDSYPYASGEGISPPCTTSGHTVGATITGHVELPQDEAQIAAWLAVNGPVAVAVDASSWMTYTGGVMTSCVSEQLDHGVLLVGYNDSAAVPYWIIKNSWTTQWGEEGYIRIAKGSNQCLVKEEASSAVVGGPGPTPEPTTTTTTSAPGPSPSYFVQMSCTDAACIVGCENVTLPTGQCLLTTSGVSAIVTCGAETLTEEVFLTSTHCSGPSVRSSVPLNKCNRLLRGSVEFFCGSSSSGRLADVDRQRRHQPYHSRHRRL
#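 Purified cruzain at 1.5 nM, pre-incubated 15 min with compound at room temperature in 100 mM sodium acetate pH 5.5, 5 mM DTT, 0.00005% Triton X-100. Reaction started with 2 uM Z-FR-AMC; AMC fluorescence increase over 60 s gives rate.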
# MARV entry inh: blocks Marburg virus binding to or entry into cells. Marburg virus pseudotyped entry inhibition, cell reporter; control for the full effect not named in the record; about a third of the inactives were read at about 46 µM. Potency, µM (titrated, usually from 37.8 µM), for inactives: at the highest dose activity change, negative = inhibition, most hits filed as inhibitors. 1.8% of 300,000 active. AID 540276; active = well fitted inhibition curve with a large enough effect; inconclusive = small, poorly fitted or top-dose-only effect, or effect the other way; inactive = flat fitted curve, though single readings scatter; tested in HEK293 cells; about a fifth of its hits are not listed in these tables; also: % is scaled to controls: 0 for no effect and ±100 for the full control effect; luciferase read-out
# NS1 inh: inhibitors of influenza NS1 protein function. Potency, µM (titrated, usually from 46.1 µM), for inactives: at the highest dose activity, positive = more growth. S. cerevisiae slowed by influenza A NS1, growth recovery by OD600. 0.4% of 270,000 active; active means well fitted rising curve with a large enough effect; inconclusive means small, poorly fitted or top-dose-only effect; inactive means no such curve, though single readings can be large or run the other way; also: nearly all actives have a fitted effect of over 50% in size
#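 Compounds were scored for reversing the slow growth caused by influenza A NS1 in S. cerevisiae, measured by optical density at 600 nm. Assay medium contained 2% galactose at pH 6.0; NS1-free yeast of the same strain were the positive control.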
# Lassa entry inh: inhibitors of Lassa virus binding or cell entry; Potency, µM (series often up to 37.9 µM), without a hit: top-dose activity change, negative = inhibition, usual class: inhibitors; 1.2% of 300,000 active; Lassa virus pseudotype entry inhibition, cell reporter; control for the full effect not named in the record; active means well fitted inhibition curve with a large enough effect; inconclusive means small, poorly fitted or top-dose-only effect, or effect the other way; inactive means flat fitted curve, though single readings scatter; tested in HEK293 cells; also: % is scaled to controls: 0 for no effect and ±100 for the full control effect; nearly all actives have a fitted effect of over 50% in size; luciferase read-out
# SARS PLpro yeast: blocks SARS-CoV papain-like protease in a yeast assay; Potency, µM (series often up to 32.9 µM), for the others: top-dose activity, positive = growth rescue; S. cerevisiae expressing SARS-CoV PLpro, growth rescue; control for the full effect not named in the record; 0.19% of 330,000 active; active means well fitted rising curve with a large enough effect; inconclusive means small, poorly fitted or top-dose-only effect; inactive means no such curve, though single readings can be large or run the other way; also: 0% is about no effect; nearly all actives have a fitted effect of over 55% in size; growth read by luminescence after 48 h
# Cruzain inh Det: blocks cruzain activity in presence of Triton detergent; P25779; purified cruzain, Z-FR-AMC fluorescence, 0.01% Triton; Potency, µM, for the others: max response, negative = inhibition, hits mostly inhibitors; 0.43% of 200,000 active; AID 1478;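 also: plate controls were neutral wells for no effect and buffer without enzyme for full effect; nearly all actives have a fitted effect of over 40% in size; top concentration of the series not given in the record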
#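 Cruzain (1.5 nM) preincubated 15 min at RT with compound in 100 mM sodium acetate pH 5.5, 5 mM DTT, 0.01% Triton X-100. Reaction started with 2 uM Z-FR-AMC; AMC fluorescence (ex 360/em 450 nm) change over 60 s gave rate.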
# An asterisk follows results filed as active; ? = inconclusive; nt = no result given; [ ] = another dose, or the depositor's remark. Unless noted, calls follow the shape of the dose curve; as a rule, active = well fitted curve in the direction sought with a large enough effect; inconclusive = small, poorly fitted or top-dose-only effect, or another doubt; inactive = no such curve, though single readings can be large; an effect the other way counts as inactive or inconclusive. Potency is read from the fitted curve at half-maximal effect. Rows were taken by chance (roughly 4.6% active in at least one column).
SMILES,2A StopGo,RE007 growth inh,Cruzain noTriton,MARV entry inh,NS1 inh,Lassa entry inh,SARS PLpro yeast,Cruzain inh Det
O=C(/C=C/c1ccc(Br)cc1)c1ccco1,?,-24%,-4%,?,-41%,?,-18%,-2.3%
CCCCc1cc(=O)oc2cc(OC3CCCCC3=O)ccc12 (stereo not drawn),26%,0%,nt,nt,7%,nt,1%,nt
Cc1cccc(-n2c(=O)c3c(c4cc(C)ccc4n3C)n(CC(=O)NCC3CCCO3)c2=O)c1 (stereo not drawn),0%,nt,-2%,nt,nt,-1%[46.1 µM],nt,0.3%
Cc1ccc([N+](=O)[O-])cc1N/C=C/C(=O)c1ccco1,nt,-11%,-1%,?,-2%,12µM*,2%,6.0%
CN1CCN(c2nc3c(c(=O)[nH]c(=O)n3C)n2CCSc2ncccn2)CC1,nt,nt,-27%,nt,-4%,nt,2%,5.5%
O=C(CCC(=O)N1CCCC1)Nc1ccc(Cl)c(Cl)c1,2%,0%,nt,23%[46.1 µM],7%,18%[46.1 µM],-1%,nt
CCn1c(SCC(=O)N(C)CC(=O)Nc2ccc(F)c(F)c2F)nnc1-c1ccco1,2%,-5%,nt,7%,3%,-2%,-1%,nt
CCCN1C(=O)SC(CC(=O)Nc2cccc3ccccc23)C1=O (stereo not drawn),-15%,8%,?,?,-1%,12%,10%,-3.9%
Cc1ccc(N(C(=O)CCC(=O)Nc2cc(C)on2)C(C(=O)NC2CCCC2)c2cccs2)cc1 (stereo not drawn),2%,-9%,-2%,?,3%,?,-6%,-2.0%
Cc1nn(C(C)C(=O)NCCN2CCCCCC2)c(=O)c2nn(-c3ccccc3)c(C)c12 (stereo not drawn),-13%,-4%,nt,0%[46.1 µM],9%,17%[46.1 µM],-5%,nt
CCCC12CN3CC(C)(CN(C1)C3c1ccc(OCc3ccccc3)cc1)C2=O (stereo not drawn),-30%,nt,-15%,14%[46.1 µM],nt,-17%[46.1 µM],nt,1.8%
Cc1nc(-c2ccc(F)cc2)c(CC(=O)N(C)CC(=O)Nc2ccccc2C(F)(F)F)s1,15%,-19%,nt,-2%,nt,-2%,0%,nt
CCOC(=O)c1c(NC(=O)COC(=O)c2ccccn2)sc(C(=O)N(C)C)c1C,11%,-9%,nt,3%,nt,-9%[46.1 µM],1%,nt
CCOC(=O)c1cnn(-c2ccc(C(C)C)cc2)c1NC(=O)C1CCC1,-28%,11%,-2%,3%,-8%,-10%,-9%,2.3%
Cc1nc2ccc(NC(=S)NC(C)C)cc2nc1C,52%[activator],-5%,-12%,?,-6%,2%,2%,-3.4%
CCCc1cc(CNC(=O)C2CCC(=O)N(CCc3cccc(F)c3)C2)on1 (stereo not drawn),-5%,-7%,nt,nt,-7%,nt,-1%,nt
COc1ccccc1-n1cnc(N)c1C(C)=O,-6%,-2%,-4%,-4%,8%,-3%,4%,6.3%
CCOc1ccc(S(=O)(=O)NCc2cccnc2)cc1NC(=O)c1ccccc1,12%,-5%,nt,17%[46.1 µM],nt,7%,nt,nt
CC(C)(C)OC(=O)N1CCCC1C(=O)O (stereo not drawn),-15%,17%,-2%,-1%,1%,-23%,7%,1.8%
COc1ccc(NC(=O)c2ccc(-n3cccn3)c([N+](=O)[O-])c2)cc1,-26%,10%,nt,-2%[46.1 µM],-4%,-2%,-1%,nt
CC(=O)NCCCc1nc2ccccc2n1Cc1ccccc1F,-3%,-13%,nt,8%[46.1 µM],0%,-12%[46.1 µM],3%,nt
O=C(O)c1ccc(/C=N/NC(=O)c2ccc(CN3c4cccc5cccc(c45)S3(=O)=O)cc2)cc1,18%,-8%,nt,nt,15%,nt,0%,nt
O=C(Cc1ccccc1)NN1C(=O)C2C3C=CC(C4CC34)C2C1=O (stereo not drawn),2%,28%,0%,18%,1%,3%,2%,0.3%
CCn1c(=O)c(C(C)=O)nc2ccccc21,-18%,-10%,-2%,12%,-5%,-5%,-1%,-2.4%
CCCOC(=O)c1ccc(NC(=O)c2ccccc2[N+](=O)[O-])cc1,43%[activator],-9%,nt,nt,-1%,nt,-1%,nt
# (more compounds)
SMILES,2A StopGo,RE007 growth inh,Cruzain noTriton,MARV entry inh,NS1 inh,Lassa entry inh,SARS PLpro yeast,Cruzain inh Det
COc1ccccc1OCc1nc(C#N)c(NCc2ccc(C)cc2)o1,-13%,nt,-3%,-23%[46.1 µM],nt,-8%[46.1 µM],nt,-7.4%
O=C(NC12CC3CC(CC(C3)C1)C2)c1cccc(OC(F)F)c1,41%[activator],47%,nt,?,-17%,?,-5%,nt
COc1ccc(CC(=O)OCC(=O)NCCc2ccccc2)cc1OC,4%,3%,4%,?,0%,1%,11%,0.2%
O=c1cccc2n1CC1CC2CN(S(=O)(=O)c2ccccc2)C1 (stereo not drawn),-1%,4%,-3%,19%,-9%,-4%,-4%,2.7%
O=c1c2ccccc2nc(/C=C/c2cccnc2)n1CCc1ccccc1,-25%,-22%,nt,?,-44%,?,-4%,nt
O=C(O)C1CCN(C(=O)CSc2nc3ccccc3c(=O)n2Cc2ccccc2)CC1,6%,5%,nt,9%[46.1 µM],3%,15%[46.1 µM],1%,nt
CN(Cc1cccs1)c1nc(-c2cccnc2)nc2ccccc12,32µM*,-1%,nt,?,nt,-17%,-3%,nt
COc1cc(/C=N/NC(N)=S)ccc1OCC(=O)Nc1ccc(C)cc1,8%,14%,?,-29%[46.1 µM],3%,12%,3%,2.5µM*
O=C1CN(C(=O)c2ccc3nc(Cc4cccc(Cl)c4)oc3c2)CCN1,-8%,-17%,nt,-4%,6%,12%,2%,nt
O=C(c1ccc(CS(=O)c2ccc(F)cc2)o1)N1CCN(C2CCCCC2)CC1 (stereo not drawn),-1%,-2%,nt,-23%[46.1 µM],3%,1%[46.1 µM],4%,nt
COc1ccc(C(C)(C)C)cc1NS(=O)(=O)c1cccc2cccnc12,33%[activator],-13%,nt,?,3%,?,5%,nt
COc1cc(C(=O)Nc2ccc(S(=O)(=O)Nc3nccc(C)n3)cc2)cc(OC)c1OC,24%,-13%,8%,8%,-3%,6%,1%,5.0%
CCN(c1ccccc1)S(=O)(=O)c1ccc(Cl)c(C(=O)NCCc2ccc(OC)cc2)c1,0%,-1%,-9%,?,10%,?,18%,-5.7%
O=C(C1CCN(C2CCN(Cc3ccc4c(c3)CCO4)CC2)CC1)N1CCCC1,-24%,12%,nt,4.5µM*,4%,-5%[46.1 µM],-1%,nt
Cc1nc2ccccc2c(=O)n1-c1ccc(F)cc1F,2%,9%,nt,?,-4%,-6%,0%,nt
COc1cc(C)ccc1OCCOCCOc1cccc2ccc(C)nc12,-9%,-18%,nt,?,1%,-2%[46.1 µM],-2%,nt
CCOc1ccc(C(=O)NCC(=O)NCC(c2ccco2)N2CCCCC2)cc1OCC (stereo not drawn),-9%,-12%,nt,-27%,nt,10%,nt,nt
COc1ccc(NC(=O)C(=O)N2N=C(C(C)C)CC2(O)C(F)(F)F)cc1 (stereo not drawn),nt,5%,2%,-6%,14%,-11%,1%,-3.4%
O=S(=O)(c1cccs1)N1CCCc2ccccc21,-1%,7%,-1%,-12%,-13%,-13%,-4%,-0.6%
COCCNC(=O)c1ccc2c(c1)CCN2S(C)(=O)=O,-5%,-9%,nt,-8%[46.1 µM],nt,4%[46.1 µM],-2%,nt
COc1ccccc1NC(=O)c1sc2cccc(Cl)c2c1Cl,8%,nt,-7%,nt,nt,?,nt,-1.6%
C#CCN(Cc1ccco1)C(=O)c1ccc(OC2CCN(Cc3ccccn3)CC2)cc1,-19%,-12%,nt,21%,nt,-5%,nt,nt
COc1ccccc1CNC(=O)CSCc1cnn(-c2ccccc2)c1-n1cccc1,?,18%,16%,-17%,-86%,?,-14%,-6.8%
COc1ccc(-n2cc(-c3ccc(Br)cc3)[nH]c2=S)cc1,16%,7%,nt,2%[46.1 µM],nt,nt,-1%,nt
CCCC(=O)NC(c1ccco1)c1c(O)ccc2ccccc12 (stereo not drawn),-9%,-8%,-1%,?,-17%,-1%,-2%,4.7%

# Part of the list above, bar-delimited:
SMILES | 2A StopGo | RE007 growth inh | Cruzain noTriton | MARV entry inh | NS1 inh | Lassa entry inh | SARS PLpro yeast | Cruzain inh Det
COc1cc(/C=N/NC(N)=S)ccc1OCC(=O)Nc1ccc(C)cc1 | 8% | 14% | ? | -29%[46.1 µM] | 3% | 12% | 3% | 2.5µM*
CCN(c1ccccc1)S(=O)(=O)c1ccc(Cl)c(C(=O)NCCc2ccc(OC)cc2)c1 | 0% | -1% | -9% | ? | 10% | ? | 18% | -5.7%
O=c1cccc2n1CC1CC2CN(S(=O)(=O)c2ccccc2)C1 (stereo not drawn) | -1% | 4% | -3% | 19% | -9% | -4% | -4% | 2.7%
Cc1nc2ccccc2c(=O)n1-c1ccc(F)cc1F | 2% | 9% | nt | ? | -4% | -6% | 0% | nt

# The results go on.
SMILES,2A StopGo,RE007 growth inh,Cruzain noTriton,MARV entry inh,NS1 inh,Lassa entry inh,SARS PLpro yeast,Cruzain inh Det
COc1ccc(-n2c(CN3CCC(C(N)=O)CC3)nc3ccc([N+](=O)[O-])cc3c2=O)c(OC)c1,3%,8%,nt,nt,-3%,nt,6%,nt
CCC(=O)c1cc2c(cc1NC(=O)c1cccs1)OCCO2,nt,-13%,6%,-14%,-22%,-22%,2%,-5.5%
CC(=O)Nc1scc(C)c1-c1nc2ccccc2s1,?,-11%,nt,3%[46.1 µM],-2%,-15%,-1%,nt
COC(=O)Nc1snnc1C,-11%,9%,-5%,10%,-11%,4%,7%,1.1%
Cc1ccc(N(C)C(=O)CCS(=O)(=O)c2ccc3c(c2)oc(=O)n3C)cc1,-4%,9%,nt,4%[46.1 µM],8%,-29%[46.1 µM],-2%,nt
O=C(/C=C/c1cccs1)Nc1nccs1,55%[activator],-9%,nt,nt,8%,nt,-3%,nt
CSc1ccc(C#N)cc1NC(=O)c1ccc(Cl)cc1Cl,-10%,2%,1%,18%,10%,-19%,4%,6.8%
O=C(O)c1ccccc1OCc1ccccc1Cl,-9%,-5%,nt,nt,-75%,nt,5%,nt

# Screening data deposited in PubChem BioAssay by National Center for Advancing Translational Sciences (NCATS).
